TSHR ag: qHTS Assay for Agonists of the Thyroid Stimulating Hormone Receptor. AID 926, 2007. Potency, µM (series often up to 57.1 µM), inactives show top-dose activation, usual class: activators. actives 0.48% (n = 73,000). HEK293-CNG-TSHR cells (CNG channel as cAMP sensor), membrane potential dye, cAMP. Thyrotropin receptor (Homo sapiens), P16473; active = well fitted activation curve of enough size with the parental cells flat; inconclusive = any curve in the parental cells; inactive = parental cells flat and receptor cells flat or falling; also: potency is read from the fitted curve at half-maximal effect; % of control where 0% means no effect; weak receptor curves with flat parental cells got no call and are not listed
Target sequence (P16473 whole entry, looked up): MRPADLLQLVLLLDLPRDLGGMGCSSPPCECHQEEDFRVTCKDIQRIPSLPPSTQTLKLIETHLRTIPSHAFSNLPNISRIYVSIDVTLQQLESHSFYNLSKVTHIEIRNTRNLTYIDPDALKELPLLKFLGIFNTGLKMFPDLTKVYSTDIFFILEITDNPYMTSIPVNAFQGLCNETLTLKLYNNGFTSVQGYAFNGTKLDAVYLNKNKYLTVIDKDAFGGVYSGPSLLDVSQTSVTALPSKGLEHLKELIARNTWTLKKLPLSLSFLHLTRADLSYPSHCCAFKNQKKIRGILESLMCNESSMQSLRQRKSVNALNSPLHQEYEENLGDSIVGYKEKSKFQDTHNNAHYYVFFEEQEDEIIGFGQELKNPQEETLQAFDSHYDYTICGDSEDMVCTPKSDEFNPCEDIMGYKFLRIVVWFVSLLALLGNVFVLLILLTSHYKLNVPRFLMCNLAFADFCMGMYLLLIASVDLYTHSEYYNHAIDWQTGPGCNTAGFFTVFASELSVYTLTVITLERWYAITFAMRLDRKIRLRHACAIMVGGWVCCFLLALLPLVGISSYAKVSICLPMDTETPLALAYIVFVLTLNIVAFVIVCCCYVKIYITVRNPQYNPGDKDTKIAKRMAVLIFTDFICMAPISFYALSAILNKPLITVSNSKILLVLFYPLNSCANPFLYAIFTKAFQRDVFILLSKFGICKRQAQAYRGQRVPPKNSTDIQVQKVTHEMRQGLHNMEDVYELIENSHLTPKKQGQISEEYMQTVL
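HEK 293 cells stably expressing TSHR and a cAMP-gated CNG channel; parental CNG-only cells as counterscreen. Cells preloaded 60 min with membrane potential dye plus 100 uM RO 20-1724, then compound 30 min; fluorescence read at 590 nm.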
A488 autofl: qHTS Assay for Spectroscopic Profiling in A488 Spectral Region | compound autofluorescence, A488 spectral region, dye equivalency; hits give high values | actives 0.1% (n = 59,000) | max dye equivalency, M; active = above 10 nM dye equivalent; inconclusive = 1 to 10 nM; inactive = 1 nM or less; about half of its hits are not listed in these tables;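 also: highest value over a series up to 38 µM; compound alone in buffer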
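Read-out: relative fluorescence at 480/540 nm, expressed as Alexa 488 dye-equivalent concentration from a six-point A488 standard included per plate. Conditions: 100 mM Tris, pH 8.0; 15 min incubation, room temperature.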
Resorufin fluor: qHTS Assay for Spectroscopic Profiling in Resorufin Spectral Region | Compound fluorescence, resorufin region 547/598 nm, buffer; hits give high values | max dye-equivalent concentration, M | actives 0.04% (n = 59,000); active = above 10 nM dye equivalent; inconclusive = 1 to 10 nM; inactive = 1 nM or less; a few of its hits are not listed in these tables; also: highest value over a series up to 38 µM
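Intrinsic fluorescence profiled in the resorufin window (ex 547 nm, em 598 nm) after 15 min at room temperature in pH 8.0 Tris buffer (100 mM); responses normalized against a six-point resorufin standard series as dye-equivalent concentration.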
A647 autofl: qHTS Assay for Spectroscopic Profiling in A647 Spectral Region; Compound fluorescence, A647 channel (570/671 nm), Tris buffer; max dye-equivalent concentration, M; 59,000 tested, under 10 active; AID 592, 2007; active means above 1 µM dye equivalent; inconclusive means 0.1 to 1 µM; inactive means 0.1 µM or less;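 also: values scaled relative to a standard on each plate; highest value over a series up to 38 µM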
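Spectral profiling of library compounds in pH 8.0 Tris: 15 min room-temperature incubation, single ex/em pair (570/671 nm), response normalized to Alexa 647 equivalents.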
AID923: qHTS Assay for Allosteric/Competitive Inhibitors of Caspase-1: Spectroscopic Profiling in AFC Spectral Region; Potency, µM (series often up to 57.5 µM), without a hit: top-dose fluorescence increase, usual class: activators; compound fluorescence, AFC spectral region (405/520 nm); almost no hit is shown here; actives 1.1% (n = 75,000); AID 923, 2007; active = well fitted activation curve with a large enough effect; inconclusive = small, poorly fitted or top-dose-only effect;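 also: potency is read from the fitted curve at half-maximal effect; 0% is about no effect; scaled to a free AFC standard on each plate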
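Baseline compound fluorescence (AFC region, 405 nm ex/520 nm em) taken from the intercept of kinetic reads with 50 nM caspase-1 and 5 uM Ac-WEHD-AFC; normalized to an on-plate AFC standard curve; compounds titrated up to 57 uM.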
* = called active by the depositor; i = inactive; ? = inconclusive; nt = no result given; [ ] = dose if it differs, or a comment. These rows are one share of the data, so the mix of outcomes need not match the whole.

SMILES	TSHR ag	A488 autofl	Resorufin fluor	A647 autofl	AID923
Cc1noc(C)c1-c1cc(N(C)C)ncn1	2%	i	i	1e-09	0.3%
Cc1ccccc1-n1c(SCC(=O)NCc2cccs2)nnc1-c1ccncc1	nt	i	i	1e-09	0.4%
COc1cc(CO)cc(Br)c1OCC(=O)O	25µM*	nt	nt	nt	-0.7%
CCCc1nc2oc3c(NCc4ccccn4)ncnc3c2c2c1COC(C)(C)C2	nt	i	i	1e-09	-1.2%
COC(=O)C1=C(C)N(c2ccc(OC)c(OC)c2)C(=O)C1	-5%	i	i	2.8e-08	0.7%
O=C(CSc1nc2c(cnn2-c2ccc(F)cc2)c(=O)[nH]1)N1CCCc2ccccc21	?	i	i	9.6e-09	-1.1%
CCOC(=O)C1CCCN(c2c(NCCc3ccc(S(N)(=O)=O)cc3)c(=O)c2=O)C1 (centres undefined)	-3%	nt	nt	nt	-0.9%
CCOC(=O)CSc1nc2ccccc2c(=O)n1CCN1CCOCC1	3%	i	i	2.5e-09	-2.8%
Cc1cccc(-c2noc(Cc3ccc(Cl)cc3)n2)c1	28%	i	i	4.1e-09	-0.9%
CCN(CC)c1ccc(NC(=O)CSc2nc(C)cc(=O)[nH]2)cc1	6%	nt	nt	nt	0.3%
CCOC(=O)c1c(NC(=O)CSc2nnc(CN3CCOCC3)n2C)sc2c1CCCC2	15%	i	i	3.9e-08	0.5%
C/C(Cl)=C/Cn1c(SCc2ccc(Cl)cc2)nc2c1c(=O)[nH]c(=O)n2C	-2%	i	i	3.6e-08	1.4%
Cc1cc2oc(=O)cc(CN3CCN(S(=O)(=O)c4ccc5c(c4)OCCO5)CC3)c2cc1C	9%	i	i	4.7e-09	-2.2%
Cc1cc(=O)oc2cc(NC(=O)CCCC(=O)O)ccc12	6%	i	i	2.5e-08	-0.1%
CC(C)(CSc1nncn1/N=C/c1ccco1)NS(=O)(=O)c1ccc(Cl)cc1	-1%	i	i	1e-09	-0.8%
CCOC(=O)N1CCN(CC(=O)Nc2cc(C)nn2-c2nc3ccccc3s2)CC1	?	i	i	1.3e-08	-1.6%
CC(C)CCNC(=O)[C@H](CC(C)C)NC(=O)[C@H]1O[C@@H]1C(=O)O	nt	i	i	1.4e-08	nt
C=CCn1c(SCC(=O)Nc2ccc(C(=O)OC(C)C)cc2)nnc1-c1cccs1	nt	i	i	1.8e-08	1.5%
CCOC(=O)c1[nH]c2ccccc2c1NC(=O)c1nonc1C	-4%	nt	nt	nt	5.0%
OCCN1CCN(CCSc2ccccc2)CC1	2%	i	i	8.8e-09	-0.3%
Cc1ccc(S(=O)(=O)NCCSc2nnnn2-c2ccc(C(N)=O)cc2)cc1	-13%	nt	nt	nt	0.7%
CO[C@H]1C=CO[C@]2(C)Oc3c(C)c(O)c4c(O)c(c5c(c4c3C2=O)NC2(CCN(CC(C)C)CC2)N=5)=NC(=O)C(C)=CC=C[C@@H](C)[C@@H](O)[C@@H](C)[C@@H](O)[C@@H](C)[C@@H](OC(C)=O)[C@@H]1C	nt	i	i	4.1e-08	-1.9%[25.7 µM]
Cc1cc(=O)oc(C)c1C(=O)NCC(C)C	nt	i	i	1.5e-08	nt
O=C(O)c1ccc2cccc(Cl)c2c1O	nt	i	i	1.7e-09	0.9%
O=C(Nc1ccc(Br)cc1)c1cnccn1	-8%	nt	nt	nt	3.3%

Quoted at random: seven entries already listed, in no set order.
SMILES	TSHR ag	A488 autofl	Resorufin fluor	A647 autofl	AID923
CC(C)(CSc1nncn1/N=C/c1ccco1)NS(=O)(=O)c1ccc(Cl)cc1	-1%	i	i	1e-09	-0.8%
C/C(Cl)=C/Cn1c(SCc2ccc(Cl)cc2)nc2c1c(=O)[nH]c(=O)n2C	-2%	i	i	3.6e-08	1.4%
Cc1ccc(S(=O)(=O)NCCSc2nnnn2-c2ccc(C(N)=O)cc2)cc1	-13%	nt	nt	nt	0.7%
Cc1cccc(-c2noc(Cc3ccc(Cl)cc3)n2)c1	28%	i	i	4.1e-09	-0.9%
Cc1cc(=O)oc(C)c1C(=O)NCC(C)C	nt	i	i	1.5e-08	nt
COC(=O)C1=C(C)N(c2ccc(OC)c(OC)c2)C(=O)C1	-5%	i	i	2.8e-08	0.7%
C=CCn1c(SCC(=O)Nc2ccc(C(=O)OC(C)C)cc2)nnc1-c1cccs1	nt	i	i	1.8e-08	1.5%

More structures follow:
SMILES	TSHR ag	A488 autofl	Resorufin fluor	A647 autofl	AID923
O=C(NCC1CCCO1)NC1(C(F)(F)F)Oc2ccccc2O1 (centres undefined)	4%	i	i	1e-09	0.7%
O=C(c1ncn[nH]1)N1CCN(c2nc(-c3ccccc3)cs2)CC1	2%	i	i	6.9e-08	0.7%
Cc1ccc(C)n1Cc1ccc(C(=O)O)cc1	nt	i	i	?	nt
Cn1c(=O)[nH]c(=O)c2c1nc(CN1CCN(c3ccc(F)cc3)CC1)n2CCN1CCOCC1	nt	i	i	1.9e-08	-1.4%
CCCCn1c(SCC(=O)Nc2nnc(C(C)C)s2)nc2c1c(=O)n(C)c(=O)n2C	?	i	i	2.3e-08	0.1%
c1ccc(-c2nn3c(Cn4nnc5ccccc54)nnc3s2)cc1	12%	i	i	1e-09	1.3%
Cc1cc(OC(=O)c2ccc(S(=O)(=O)N(C)C)cc2)cc(=O)o1	-2%	i	i	6.3e-09	0.2%
Cn1nnnc1SCC(=O)Nc1cc(C(C)(C)C)nn1-c1ccccc1	7%	i	i	2.1e-08	-1.1%
N#Cc1c(NC(=O)CSc2ncnc3c2cnn3-c2ccccc2Cl)sc2c1CCCC2	12%	i	i	1.9e-09	0.0%
CCOC(=O)C1CCCN(C(=O)Cn2sc3nc(C)cc(C)c3c2=O)C1 (centres undefined)	1%	nt	nt	nt	-1.5%
O=C1C(O)=C(O)C(=O)C(O)=C1O	2%[25.6 µM]	i	i	1e-09	-1.9%
CCOC(=O)CSc1nnc(CNC(=O)c2cccc(C)c2)n1-c1ccccc1OC	11%	i	i	1e-09	-0.2%
CSc1nsc(SCC(=O)Nc2ccccn2)n1	9%	i	i	4.6e-09	-0.6%
Cc1ccc(C)n1-c1ccncc1	-1%	i	i	1e-09	0.8%
CCOC(=O)CSc1nnc(Cn2c(=O)sc3ccccc32)n1C	-3%	nt	nt	nt	1.9%
O=C(c1ccc2c(c1)OCO2)N1CCCc2ccccc21	nt	i	i	1e-08	0.2%
COc1ccc(OC)c(NC(=O)CSc2nnc(-c3ccco3)n2-c2ccccc2)c1	24%	i	i	1e-09	-1.7%
Cc1ccc(-c2csc3ncn(/N=C/N(C)C)c(=O)c23)o1	1%	i	i	5.1e-09	0.0%
Cc1cc(=S)n(-c2ccccc2)n1C	-1%[11.4 µM]	nt	nt	nt	1.6%
O=C(CNC(=O)c1cnccn1)Nc1ccc(F)c(F)c1F	4%	i	i	6.9e-09	3.1%
Cc1ccc(S(=O)(=O)N2CCN(C(=O)CCC(=O)NC3CCCc4ccccc43)CC2)cc1 (centres undefined)	3%	i	i	2.3e-08	0.0%
C=CCn1c(N2C(=O)CC(Cc3ccccc3)C2=O)nc2ccccc21 (centres undefined)	7%	i	i	2.7e-08	-0.9%
COC(=O)C/C=C\[C@@H](C)[C@@H](/C=N\O[C@@H](C)CN1CCCc2nc(C)c(C)cc21)OC	8%[11.4 µM]	nt	nt	nt	8.0%[11.5 µM]
CCc1oc(C(=O)O)cc1COC	0%	i	i	6.3e-09	2.3%
C/C(=N\O)C(=O)NCc1ccccn1	5%	i	i	3.4e-08	1.2%
Continuation.
SMILES	TSHR ag	A488 autofl	Resorufin fluor	A647 autofl	AID923
C=C(Cl)COc1ccc2c(C)cc(=O)oc2c1	21%[11.4 µM]	nt	nt	nt	1.2%
CC(=O)Nc1ccc(S(=O)(=O)N2CCN(C(=O)N3CCCCCC3)CC2)cc1	1%	i	i	4e-09	1.9%
CCC(Sc1nc(C)cc(C)n1)C(=O)O (centres undefined)	8%	nt	nt	nt	1.4%
OC(CN1C2=NCCCN2c2ccccc21)c1ccc(Cl)cc1 (centres undefined)	?	nt	nt	nt	-0.7%
CC(C)OC(=O)c1sc2nc3c(cc2c1N)C(=O)CCC3	nt	i	i	1.2e-08	nt
CCOC(=O)c1ccc(NC(=O)c2c(C)[nH]c(C(=O)OCC)c2C)cc1	5%[11.4 µM]	i	i	5.7e-09	-2.1%
Cc1noc(C)c1C(=O)N1CCC2(CCCN(C(=O)Nc3ccccc3)C2)CC1	4%	i	i	1.3e-09	-1.7%
Clc1ccc(Cc2noc(-c3cccs3)n2)cc1	-7%	i	i	1.3e-08	-1.9%
CCN1CCCC1Cn1cnc2c([nH]c3ccc(Cl)cc32)c1=O (centres undefined)	-6%	i	i	1e-09	1.8%
COc1ccc(N2CCN(C(=O)CCCC3=NS(=O)(=O)c4ccccc4N3)CC2)cc1	22%	i	i	2.3e-09	-0.4%
COCCN1Cc2cccc(C(=O)Nc3ccc(S(=O)(=O)N4CCCCC4)cc3)c2C1=O	nt	i	i	2.8e-08	1.7%
O=C(CCCCCN1C(=O)C2C3C=CC(C3)C2C1=O)Nc1nccs1 (centres undefined)	9%	nt	nt	nt	0.4%
COc1ccc(N(C(C)=O)C2C=CS(=O)(=O)C2)c(OC)c1 (centres undefined)	-8%[11.4 µM]	i	i	8.5e-09	-0.3%
COc1ccc(S(=O)(=O)N(Cc2ccccc2)Cc2nc3ccccc3c(=O)[nH]2)cc1	nt	i	i	1e-09	1.7%
CCn1c(=O)cc(OCC(=O)N2CCc3ccccc32)c2ccccc21	3%	nt	nt	nt	0.0%
CC(=O)c1ccc(NC(=O)C2CCC(C)(C(=O)O)C2(C)C)cc1 (centres undefined)	0%	nt	nt	nt	-0.2%
O=C(NCc1cccs1)c1nn2cccnc2c1Cl	-1%	i	i	6.5e-09	1.3%
CCOC(=O)C1C(=O)NC(N2CCOCC2)=NC1c1ccco1 (centres undefined)	4%	i	i	2.6e-09	0.1%
N#Cc1cccc(NC(=O)N2CC[C@@]3(CCCN(C(=O)c4ccncc4)C3)C2)c1	-6%	i	i	3.8e-09	4.2%
COc1ccc(S(=O)(=O)n2nc(-c3cc(OC)c(OC)c(OC)c3)cc2N)cc1OC	16%	nt	nt	nt	0.6%

Arranged by molecular weight (low to high): 3 of the compounds above
SMILES	TSHR ag	A488 autofl	Resorufin fluor	A647 autofl	AID923
Clc1ccc(Cc2noc(-c3cccs3)n2)cc1	-7%	i	i	1.3e-08	-1.9%
CCOC(=O)C1C(=O)NC(N2CCOCC2)=NC1c1ccco1 (centres undefined)	4%	i	i	2.6e-09	0.1%
O=C(CCCCCN1C(=O)C2C3C=CC(C3)C2C1=O)Nc1nccs1 (centres undefined)	9%	nt	nt	nt	0.4%

Compounds above that contain a cyano group, in the order listed:
SMILES	TSHR ag	A488 autofl	Resorufin fluor	A647 autofl	AID923
N#Cc1c(NC(=O)CSc2ncnc3c2cnn3-c2ccccc2Cl)sc2c1CCCC2	12%	i	i	1.9e-09	0.0%
N#Cc1cccc(NC(=O)N2CC[C@@]3(CCCN(C(=O)c4ccncc4)C3)C2)c1	-6%	i	i	3.8e-09	4.2%
